Assay outcomes as filed in PubChem.
KSHV LANA nucl – inhibitors of KSHV LANA binding to nucleosomes. FITC-LANA1-23 / chicken nucleosome fluorescence polarization; active compounds read low. z-score (test concentration not listed). actives 0.3% (n = 51,000);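 active = both repeat wells score below -2 in polarization z-score versus plate sample wells, excluding overly bright wells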;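 also: 100 nL library stock added to about 30 µL; numbers are from one replicate; some results filed as inactive read as strong as hits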
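test system = FITC-LANA peptide and chicken nucleosomes | amount = 240 nM purified chicken nucleosomes (480 nM peptide binding sites), final | reagent = 50 nM FITC-LANA1-23 probe | medium = TEN-BT buffer, pH 7.5 | doses = single compound addition by pin transfer, 100 nL per well | timing = 10–45 min, room temperature | detection = fluorescence polarization | repeats = duplicate plates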
BasE inh – blocks the Acinetobacter baumannii siderophore enzyme BasE; inhibition, % (concentration not given with the values); actives 0.1% (n = 84,000); purified BasE, fluorescence polarization binding displacement;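 active = both replicates above 25% with normal brightness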;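 also: 0% = negative plate control signal and 100% = positive plate control signal; stock transfer was 100 nL into about 30 µL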
* marks the source's active call; other numbers are inactive results; . = not tested or not shown; & = joins results of further samples. Some of the compounds tested; rates above refer to the full screens.

canonical_smiles | KSHV LANA nucl | BasE inh
OC(CN1CCOCC1)c1ccc2cc[nH]c2c1 (stereo not given) | -0.29 | 1.8
CCOC(=O)N1CCC(NC(=O)C(C)n2c3ccccc3c3cnn(C)c(=O)c32)CC1 (stereo not given) | -0.76 | -0.9
COC(=O)C(CO)Nc1ncnc2onc(-c3ccc(F)cc3)c12 (stereo not given) | -0.35 | -1.2
N#Cc1c(SCC(=O)NCC2CCCO2)nc2c(c1-c1ccco1)CCCC2 (stereo not given) | . | -1.7
COc1ccc(-c2cc(-c3ccccc3)nc(N3CCCCC3)n2)cc1OC | -0.45 | 0.2
O=C(CSc1nc2cc(Cl)ccc2s1)Nc1ccnn1C1CCCC1 | . | 1.2
CN(C(=O)CN1C(=O)c2ccccc2C1=O)c1ccccc1 | . | 1.9
CCN(CC)C(=O)CCN1C(=O)c2cc(Cl)c(Cl)cc2C1=O | 0.16 | 2.2

Random excerpt: 2 compounds from above
canonical_smiles | KSHV LANA nucl | BasE inh
CN(C(=O)CN1C(=O)c2ccccc2C1=O)c1ccccc1 | . | 1.9
OC(CN1CCOCC1)c1ccc2cc[nH]c2c1 (stereo not given) | -0.29 | 1.8

Next part
canonical_smiles | KSHV LANA nucl | BasE inh
CC(=O)Nc1nc(COC(=O)c2cc(=O)[nH]c3ccccc23)cs1 | . | 0.5
COc1ccc(Br)cc1CN(C)Cn1c(NCCO)nc2ccccc21 | . | -1.6
NC(=O)c1ccc[n+]([C@@H]2O[C@H](COP(=O)([O-])OP(=O)(O)OC[C@H]3O[C@@H](n4cnc5c(N)ncnc54)[C@H](OP(=O)(O)O)[C@@H]3O)[C@@H](O)[C@H]2O)c1 | 0.16 | -2.8
CN(C)S(=O)(=O)c1cccc(CSc2nnc(N)s2)c1 | . | 0.6
O=C(O)/C=C/C(=O)NNc1ncnc2ccccc12 | . | 1.6
COC(=O)c1ccc2c(=O)n(CCO)c(SCCOc3ccc(Br)cc3)nc2c1 | . | 1.3
Cc1[nH]cnc1CN1CCc2c(c3ccccc3n2C)C1=O | -0.035 | .
CCC(C)NC(=O)c1ccc(NC(=O)C2=C(C)OCCS2)cc1 (stereo not given) | 0.3 | 1.6
C=CCNc1nc(Nc2ccc(-c3nc4ccccc4o3)cc2)nc(OCC)n1 | . | 1.5
COC(=O)c1ccc(C(=O)O)s1 | -0.27 | 0.6
O=C(NCCN1CCOCC1)c1cc2c(s1)-c1ccccc1OC2 | -1.1 | -4.6
CC1(C)NC(=O)c2ccccc2O1 | -0.2 | 3.0
COc1ccc(CNC(=O)CN2CCC(=O)CC2)cc1 | . | 9.7
COc1ccc(-c2noc(CN3CCC(C(=O)Nc4ccccc4)CC3)n2)cc1OC | . | -2.2
CCC(NC(=O)c1ccccc1)c1ccccc1 (stereo not given) | 0.84 | -0.3
Cn1c(SCC(=O)NC2CC2)nnc1-c1cccs1 | -0.049 | 0.3
CC1CCN(c2cn[nH]c(=O)c2Br)CC1 | . | 0.8
CCOC(=O)c1cc(CN)c(C)o1 | -0.5 | 0.8
CCc1cc2c(COC(=O)C3CC(=O)N(Cc4ccco4)C3)cc(=O)oc2cc1O (stereo not given) | . | -2.1
CC1=C(C(=O)OCc2ccccc2)C(/C=C/c2ccccc2)N2C(=O)CCSC2=N1 (stereo not given) | . | 2.2
O=C(COc1cc(C(F)(F)F)cc(C(F)(F)F)c1)Nc1ccc2c(c1)OCO2 | . | 3.8
Nn1c(SCC(=O)N2CCc3ccccc32)nnc1C(F)(F)F | . | 2.1
O=S(=O)(NN1CCOCC1)c1cccc2nonc12 | 0.27 | 2.2
Cc1n[nH]c(C)c1S(=O)(=O)Nc1ccc(Br)cc1F | . | 2.6
Cn1c(=O)cc(N)n(Cc2ccccc2)c1=O | . | 3.1
COc1ccc(C(=O)CC2(O)C(=O)N(CN3CCOCC3)c3ccc(Br)cc32)cc1 (stereo not given) | . | -0.2
CSc1nn(-c2ccccc2)cc1-c1nc(C(C)(C)C)cs1 | -0.81 | 3.2
CCN(CC)S(=O)(=O)c1ccc(NCCc2ccccn2)nc1 | . | -0.6
O=C(c1ccco1)N(Cc1ccccc1)Cc1cn(-c2ccccc2)nc1-c1cccs1 | -0.7 | 2.5
CCOC(=O)N1CCN(C(=S)NC(=O)c2cc(Br)ccc2Cl)CC1 | . | 1.2
N#Cc1ccc(Cn2cc(Br)ccc2=O)cc1 | . | 1.0
O=C(NCc1noc2ccccc12)Nc1nc2ccccc2s1 | -0.82 | -1.2
CN(C)S(=O)(=O)c1cccc(COC(=O)CN2CCCCCC2=O)c1 | . | 0.1
N#C/C(C(=O)NCc1ccco1)=c1/s/c(=C/c2ccncc2)c(=O)n1-c1ccccc1 | 1.3 | -1.6
COc1ccc(Oc2ncccc2NC(=O)c2ccc(OC)cc2)cc1 | . | -1.7
Cc1cc(=O)[nH]c(SCC(=O)N2CCCCC2)n1 | -0.76 | -3.0
CCc1noc(C)c1C(=O)N1CCN(S(=O)(=O)c2ccccc2)CC1 | . | 2.6
CC(C)C(C)(C#N)NC(=O)CSc1nnc2ccccn12 (stereo not given) | . | -1.9
CCN(CC)c1ccc(/C=N/N2CCN(Cc3ccc(Cl)cc3)CC2)c(O)c1 | 0.35 | 1.6
CN(C)c1ccc(/C=C/C=C2/SC(=O)N(CC(=O)N3CCCC3)C2=O)cc1 | -0.54 | -3.3
Cn1c(=O)c2[nH]c(SCc3ccc(Cl)c(Cl)c3)nc2n(C)c1=O | -0.2 | 1.4
CCC(C)c1ccc(C2=Nn3c(nnc3C(C)C)SC2)cc1 (stereo not given) | . | 0.8
CN(CCO)c1ccc(C(F)(F)F)cn1 | -0.37 | 1.2
CSc1ccccc1N1C(=O)CC(Sc2ccccc2C(=O)O)C1=O (stereo not given) | . | 2.2
O=C(c1ccccc1)N1CCc2ccccc21 | 0.72 | 2.2
CC1(C)C2CC[C@]3(C)C(C(=O)C=C4[C@@H]5C[C@@](C)(C(=O)O)CC[C@]5(C)CC[C@]43C)[C@@]2(C)CC[C@@H]1OC(=O)CCC(=O)O (stereo not given in full) | 0.13&0.068 | -0.5
Nn1c(COc2ccccc2)nnc1SCc1cc(=O)[nH]c2ccccc12 | 0.083 | -3.0
C=CCNc1oc(-c2ccccc2C)nc1C#N | 0.39 | 2.9
CCN1CCC(N)CC1 | . | 4.7
CN(C)CC(O)COc1ccc(C(C)(C)C)cc1 (stereo not given) | 0.73 | 2.4
COc1ccccc1N1CCN(Cc2cn[nH]c2-c2ccccc2)CC1 | -0.8 | 2.4
Cc1ccc(S(=O)(=O)N(C)c2nc3ccccc3nc2N2CCN(Cc3ccccc3)CC2)cc1 | . | -0.7
C=CCn1c(C2CCS(=O)(=O)C2)n[nH]c1=S (stereo not given) | . | -1.3
O=C1CCN(C(=O)Cc2ccc(NS(=O)(=O)c3ccc(F)cc3)cc2)CC1 | . | -1.2
COc1ccc(/C=C(\C#N)C(=O)OC(C)(C)C)cc1 | -0.42 | -0.8
Cc1ccc(OCCc2csc(N)n2)cc1 | -0.047 | 1.5

Later entries.
canonical_smiles | KSHV LANA nucl | BasE inh
CCC1(CO)COC(c2ccco2)OC1 (stereo not given) | 0.74 | 0.4
O=C(Nc1ccccc1)N(Cc1ccco1)Cc1cccs1 | -0.77 | 1.7
COCc1c(C(=O)OC2CCOC2=O)oc2ccccc12 (stereo not given) | . | -2.1
CCOC(=O)C1=C(C)NC2=C(C(=O)CC(c3ccco3)C2)C1c1ccc(C(F)(F)F)cc1 (stereo not given) | -0.67 | 1.6
CCc1ccc(-n2nc3cc(C)c(NC(C)=O)cc3n2)cc1 | -1.6 | 3.3
Cn1c(=O)[nH]c(=O)c2c1nc1n2CC(c2ccccc2)=N1 | . | 1.0
CN(C(=O)COc1ncnc2sccc12)c1ccccc1 | . | -0.4
CC(=O)Nc1ccc(S(=O)(=O)N2CCC(NC(C)=O)(c3cccc(F)c3)CC2)cc1 | 0.12 | 1.0
NC(=O)C1(N2CCCCC2)CCN(S(=O)(=O)c2ccc(Cl)s2)CC1 | -0.39 | -1.9
CCCNC(=O)C1CN(C(=O)c2cnc(C)cn2)c2ccccc2O1 (stereo not given) | . | 3.2
COC(=O)CNc1cc[nH]c(=O)c1C#N | 0.035 | -1.0
CNC(=O)NCc1ccc(-c2csnn2)cc1 | -0.32 | -0.8
Cc1cc(C)c(C(N)=O)c(SCC(=O)Nc2c(C)n(C)n(-c3ccccc3)c2=O)n1 | . | -0.1
c1cncc(-c2nc(NCCSCc3ccco3)c3ccccc3n2)c1 | . | -0.1
O=C(Nc1ccc2c(c1)OCO2)c1c(Cl)nc2ccccn12 | . | 2.2
O=C1S/C(=C/c2ccc3c(c2)OCO3)C(=O)N1CN1CCCCC1 | 0.18 | 2.1

Gathered by group, the compounds so far with fluorine (eight)
canonical_smiles | KSHV LANA nucl | BasE inh
COC(=O)C(CO)Nc1ncnc2onc(-c3ccc(F)cc3)c12 (stereo not given) | -0.35 | -1.2
O=C(COc1cc(C(F)(F)F)cc(C(F)(F)F)c1)Nc1ccc2c(c1)OCO2 | . | 3.8
Nn1c(SCC(=O)N2CCc3ccccc32)nnc1C(F)(F)F | . | 2.1
Cc1n[nH]c(C)c1S(=O)(=O)Nc1ccc(Br)cc1F | . | 2.6
CN(CCO)c1ccc(C(F)(F)F)cn1 | -0.37 | 1.2
O=C1CCN(C(=O)Cc2ccc(NS(=O)(=O)c3ccc(F)cc3)cc2)CC1 | . | -1.2
CCOC(=O)C1=C(C)NC2=C(C(=O)CC(c3ccco3)C2)C1c1ccc(C(F)(F)F)cc1 (stereo not given) | -0.67 | 1.6
CC(=O)Nc1ccc(S(=O)(=O)N2CCC(NC(C)=O)(c3cccc(F)c3)CC2)cc1 | 0.12 | 1.0

The list continues:
canonical_smiles | KSHV LANA nucl | BasE inh
CCN=C1S/C(=C\c2ccc(OC)c(OC)c2)C(=O)N1CC | 0.13 | 0.4
CCN(CC)C(=O)c1ccccc1C | -0.24 | 3.8
COCCN(C(=O)Nc1ccccc1OC)c1nc2ccccc2s1 | 0.37 | 3.4
CC1CCC2(CC1)C(=O)NC(=O)N2C (stereo not given) | . | -2.2
Nc1cccc2c(S(=O)(=O)NC3CCCCC3)cccc12 | -0.33 | -0.3
Cc1cc(C)c(C#N)c(=S)[nH]1 | . | 2.6
Cc1ccc(C)c(NC(CC(=O)c2ccccc2)C(=O)O)c1 (stereo not given) | . | 6.7
CC(C)OC(=O)/C(C#N)=C/c1c[nH]c2ccccc12 | -0.12 | 0.3
CCOC(=O)c1cncc(C#CCOC(=O)Nc2ccc(OC(F)(F)F)cc2)c1 | . | 2.6
CCCCNC(=O)Nc1ccc(C2SCCS2)cc1 | -0.27 | 1.7
CCc1nnc(NC(=O)CSC2=NC(=O)C(NC(C)=O)C(=O)N2)s1 (stereo not given) | -1.5 | 2.6
CCn1c(=N)n(CC(O)COc2ccccc2)c2ccccc21 (stereo not given) | -0.24 | -1.5
COc1cccc(/C=C2/Sc3ccc(C(=O)NCc4ccco4)cc3NC2=O)c1 | -0.18 | -4.0
Cc1ccccc1C(=O)N1CCc2c([nH]c3ccccc23)C1C(F)(F)F (stereo not given) | . | 0.9
C[C@@H](c1ccccc1)N1C(=O)CC[C@H]2CC(=O)CC[C@@H]21 | -0.88 | 2.4
CN1/C(=C\C(=O)c2cccnc2)C(C)(C)c2ccccc21 | . | 2.5
O=C(Nc1cc(=O)[nH]c(=O)[nH]1)C(c1ccccc1)c1ccccc1 | -0.92 | 0.3
CN(C1CCCCC1)S(=O)(=O)c1ccc(C(=O)Nc2ccc3c(c2)C(=O)NC3=O)cc1 | 0.043 | 2.7
O=c1[nH]c2cc3c(cc2cc1CN(Cc1ccco1)S(=O)(=O)c1cccc(C(F)(F)F)c1)OCO3 | -0.69 | 0.8
CCc1ccc(C(=O)COC(=O)c2cccc(-n3cccc3)c2)s1 | . | 3.8
CC(C)(C)C(=O)Nc1cccc(C(=O)O)c1 | -0.73 | 2.0
CC1=CCC(COC(=O)Nc2ccccc2)CC1 (stereo not given) | . | 2.5
COc1ccc(CCN2COc3ccc4c5c(oc4c3C2)C(=O)c2ccccc2C5=O)cc1OC | . | 1.5
OC(CSc1ccc(F)cc1)CN1CCN(c2ccc(C(F)(F)F)cn2)CC1 (stereo not given) | -1 | 1.5
C=CCOc1cccc(C(=O)NCc2ccccc2)c1 | 0.37 | 1.2
CC(C)(C)C(=O)OCC1OC(n2cnc(C(N)=O)n2)C(O)C1O (stereo not given) | 0.39 | -1.1
O=C(NCC(c1ccco1)N1CCc2ccccc21)c1ccccc1 (stereo not given) | -0.88 | 1.6
O=C(Cn1ncc2ccsc2c1=O)N1CCN(c2cccc(Cl)c2)CC1 | 0.56 | 0.5
O=S(=O)(c1ccc(-c2cc(C(F)(F)F)no2)s1)N1CCCc2ccccc21 | . | 0.7
CC(Nc1n[nH]c(=O)[nH]c1=O)C(=O)N/N=C/c1ccccc1 (stereo not given) | -0.3 | -1.2
CC(C)c1ccc(NCc2nc(-c3ccc(Cl)cc3Cl)no2)cc1 | . | 1.8
Cc1cc(N/C=C(\C#N)C(=O)c2cccs2)no1 | 2.9 | 4.4
Nc1nc2ccccc2n1CCOc1ccc(Br)cc1 | . | 2.4
COC(=O)c1ccc(NC(=O)CSc2nc3cc4c(cc3cc2C#N)OCCO4)cc1 | -0.44 | 1.0
O=C(/C=C1/SC(=O)NC1=O)Nc1nccs1 | . | -0.9
Cc1nn(CCC(=O)NCc2ccccc2)c(=O)c2nn(-c3ccccc3)c(C)c12 | . | -1.1
Cc1c(C(=O)OCC(=O)Nc2ccc(SC(F)F)cc2)oc2ccc(Br)cc12 | . | -4.4
